Marburg entry inh: qHTS for inhibitors of binding or entry into cells for Marburg Virus; 1.8% of 300,000 active; Potency, µM (highest dose often 37.8 µM), for inactives: top-dose activity change, negative = inhibition, usual class: inhibitors; Marburg virus pseudotyped entry inhibition, cell reporter; control for the full effect not named in the record; about a third of the inactives were read at about 46 µM; active = well fitted inhibition curve with a large enough effect; inconclusive = small, poorly fitted or top-dose-only effect, or effect the other way; inactive = flat fitted curve, though single readings scatter; tested in HEK293 cells; about a fifth of its hits are not listed in these tables; note: % is set by controls: 0 for no effect and ±100 for the full control effect; luciferase read-out
RE007 growth inh: qHTS Assay for Inhibitors of the HIV-1 protein Vpr | 0.21% of 360,000 active | S. pombe RE007 Vpr strain, BacTiter-Glo ATP luminescence, 24 h; control for the full effect not named in the record | Potency, µM (series often up to 92.2 µM), inactives show at the top dose activity change, negative = less growth; active = well fitted falling curve with a large enough effect; inconclusive = small, poorly fitted or top-dose-only effect; inactive = no such curve, though single readings can be large or run the other way;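 note: % is set by controls: 0 for no effect and ±100 for the full control effect; nearly all actives have a fitted effect of over 50% in size; the assay follows cell death caused by Vpr and the record does not say whether a fall means rescue or toxicity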
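Fission yeast RE007 carrying one integrated HIV-1 vpr copy, seeded at OD 0.01 in PMG+AL medium with 23 nL pinned compound. Grown 24 h at 30 degrees; viability read by BacTiter-Glo luminescence after 5 min.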
Cruzain inh noDet: qHTS Assay for Promiscuous and Specific Inhibitors of Cruzain (without detergent); Cruzipain (Trypanosoma cruzi), P25779; purified cruzain, Z-FR-AMC fluorescence, no detergent; Potency, µM, for inactives: max response, negative = inhibition, most hits filed as inhibitors; 2.3% of 200,000 active; AID 1476, 2009; active = well fitted curve in the direction sought with a large enough effect; inconclusive = small, poorly fitted or top-dose-only effect, or another doubt; inactive = no such curve, though single readings can be large; an effect the other way counts as inactive or inconclusive;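 note: plate controls were enzyme without inhibitor for no effect and buffer without enzyme for full effect; nearly all actives have a fitted effect of over 40% in size; top concentration of the series not given in the record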
Target sequence (P25779 123-467 limits assumed): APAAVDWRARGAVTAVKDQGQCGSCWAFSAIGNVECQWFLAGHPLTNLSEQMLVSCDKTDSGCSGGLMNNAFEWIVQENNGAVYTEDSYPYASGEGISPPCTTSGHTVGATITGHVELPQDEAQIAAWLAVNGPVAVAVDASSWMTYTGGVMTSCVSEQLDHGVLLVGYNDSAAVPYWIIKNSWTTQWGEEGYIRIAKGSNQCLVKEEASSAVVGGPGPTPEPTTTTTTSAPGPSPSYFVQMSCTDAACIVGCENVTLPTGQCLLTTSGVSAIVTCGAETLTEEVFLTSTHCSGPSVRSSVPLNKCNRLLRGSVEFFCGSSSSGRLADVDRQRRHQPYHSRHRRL
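Detergent-free condition (0.00005% Triton X-100) in acetate buffer pH 5.5 with DTT. 1.5 nM enzyme and compound were pre-mixed 15 min, then 2 uM Z-FR-AMC substrate added; reaction progress from fluorescence change between first and third reads (60 s).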
Cruzain Triton: qHTS Assay for Promiscuous and Specific Inhibitors of Cruzain (with detergent). Cruzipain (Trypanosoma cruzi), P25779. purified cruzain, Z-FR-AMC fluorescence, 0.01% Triton. Potency, µM, for the others: max response, negative = inhibition, most hits filed as inhibitors. 0.43% of 200,000 active; active = well fitted curve in the direction sought with a large enough effect; inconclusive = small, poorly fitted or top-dose-only effect, or another doubt; inactive = no such curve, though single readings can be large; an effect the other way counts as inactive or inconclusive;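 note: plate controls were neutral wells for no effect and buffer without enzyme for full effect; nearly all actives have a fitted effect of over 40% in size; top concentration of the series not given in the record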
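Steps: dispense cruzain (1.5 nM final) in acetate buffer pH 5.5 with DTT and 0.01% Triton X-100; pin-transfer compounds; incubate 15 min RT; add Z-FR-AMC (2 uM final); read fluorescence every 30 s, using the 60 s intensity change.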
Lassa entry inh: qHTS for Inhibitors of binding or entry into cells for Lassa Virus; 1.2% of 300,000 active; Potency, µM (top dose mostly 37.9 µM), for the others: at the highest dose activity change, negative = inhibition, actives largely listed as inhibitors; Lassa virus pseudotype entry inhibition, cell reporter; control for the full effect not named in the record; active means well fitted inhibition curve with a large enough effect; inconclusive means small, poorly fitted or top-dose-only effect, or effect the other way; inactive means flat fitted curve, though single readings scatter; tested in HEK293 cells; note: % is set by controls: 0 for no effect and ±100 for the full control effect; nearly all actives have a fitted effect of over 50% in size; luciferase read-out
SARS PLpro yeast: qHTS of Yeast-based Assay for SARS-CoV PLP; S. cerevisiae expressing SARS-CoV PLpro, growth rescue; control for the full effect not named in the record; Potency, µM (series often up to 32.9 µM), without a hit: top-dose activity, positive = growth rescue; 0.19% of 330,000 active; AID 485353, 2010; note: 0% is about no effect; nearly all actives have a fitted effect of over 55% in size; growth read by luminescence after 48 h
NS1 inh: qHTS Assay for Inhibitors of Influenza NS1 Protein Function | S. cerevisiae slowed by influenza A NS1, growth recovery by OD600 | Potency, µM (series often up to 46.1 µM), inactives show at the top dose activity, positive = more growth | 0.4% of 270,000 active; note: actives are rising curves; nearly all actives have a fitted effect of over 50% in size
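Recovery from NS1-induced slow growth read by OD600 in budding yeast switched to galactose assay medium (pH 6.0, -URA) at 1:100 dilution. Compound 23 nl per well; the matching strain lacking NS1 serves as control.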
StopGo reporter: High Throughput Screening for Foot and Mouth Disease Virus Antivirals; human cells with a luciferase reporter of 2A StopGo recoding; control for the full effect not named in the record; Potency, µM (doses to about 57.9 µM), for the others: top-dose signal change, negative = less light; 1.2% of 410,000 active; AID 1159524, 2015; active = well fitted falling curve with a large enough effect; inconclusive = small, poorly fitted or top-dose-only effect; inactive = no such curve, though single readings can be large or run the other way; tested in HEK293T cells; note: % is set by controls: 0 for no effect and ±100 for the full control effect; nearly all actives have a fitted effect of over 45% in size; luciferase light after 4 h
Active calls of the source: *; u = inconclusive; x = not tested or not shown; & = joins results of further samples; [ ] = dose if it differs, or a comment. Unless noted, calls come from the whole dose curve; as a rule, active means well fitted rising curve with a large enough effect; inconclusive means small, poorly fitted or top-dose-only effect; inactive means no such curve, though single readings can be large or run the other way. Potency is the fitted concentration of half-maximal effect.

SMILES	Marburg entry inh	RE007 growth inh	Cruzain inh noDet	Cruzain Triton	Lassa entry inh	SARS PLpro yeast	NS1 inh	StopGo reporter
CCN(CC)c1ccc(NS(=O)(=O)c2cn(C)c(=O)n(C)c2=O)c(C)c1	x	1%	x	x	x	6%	-13%	-12%
C/C=C(\C)CN1CCC(n2nccc2NC(=O)CCc2ccccc2)CC1	u	-11%	x	x	-1%[46.1 µM]	1%	6%	13%
Cc1ccc(S(=O)(=O)N2CCOCC2)cc1C(=O)N1CCN(c2ccc(C(F)(F)F)cn2)CC1	u	0%	x	x	u	-18%	x	u
Cc1ccc(CNC(=O)CC(C)S(=O)(=O)c2ccc3c(c2)NC(=O)CO3)cc1 (stereo not given)	19%[46.1 µM]	-11%	x	x	-9%[46.1 µM]	2%	-9%	-23%
COc1ccc(CN(N=O)C2CC(=O)N(c3ccc(OC)cc3)C2=O)cc1 (stereo not given)	-12%	-8%	x	x	16%	0%	-3%	-12%
CC(C)OP(=O)(OC(C)C)C1(O)C(=O)Nc2ccc(Br)cc21 (stereo not given)	8%	-3%	7%	1.5%	0%	0%	2%	u
O=C(CSc1nnc(-c2ccccc2)n1Cc1ccco1)Nc1ccc(S(=O)(=O)N2CCCC2)cc1	u	-1%	-5%	-3.4%	u	1%	22%	-28%
CCCc1ncc(CN2CCC(C(=O)Nc3cccc(-c4cscn4)c3)CC2)cn1	x	-6%	x	x	x	-4%	-5%	-27%
COC1C(O)C(O)C(O)C(O)C1O (stereo not given)	x	4%	-5%	1.0%	x	x	x	-16%&-5%
Cc1ccc(Nc2cc(C(=O)NC3CCCC3)c3ccccc3n2)c(C)c1	-1%[46.1 µM]	x	1%	-5.2%	0%[46.1 µM]	x	x	-6%
Cc1cccc(C)c1NC(=O)c1ccc2nc(CCc3ccccc3)oc2c1	x	x	-21%	-5.6%	u	x	x	u
CCOC(=O)CC(NC(=O)Cc1cccs1)c1ccccc1Cl (stereo not given)	-1%	0%	x	x	-4%	-3%	0%	41%[activator]
CCc1cc2c(NCCC(=O)O)ncnc2s1	4%[46.1 µM]	20%	-3%	2.5%	9%	0%	-7%	3%
CCOC(=O)NN1C(=O)c2ccccc2NC1c1ccc(OC)c(OC)c1 (stereo not given)	-4%[46.1 µM]	1%	x	x	9%[46.1 µM]	1%	2%	-6%
CCCCN(C)CCNC(=O)C(=O)c1c(C)[nH]c2ccccc12	2%[46.1 µM]	17%	x	x	-9%	4%	x	5%
Cc1cccc(NC(=S)NNC(=O)c2csc3c2CCCC3)c1	u	3%	-3%	-0.5%	63%[14.3 µM]	0%	-63%	82%[activator]
c1ccc(-c2csc(-c3ccc(-c4csnn4)cc3)n2)cc1	x	5%	x	x	x	0%	0%	52%[activator]
CCOC(=O)c1cnc2c(C(F)(F)F)cccc2c1NCCCN1CCOCC1	x	-8%	x	x	x	-6%	8%	-12%
Cc1ccc2cccc(OCC(=O)NCc3ccco3)c2n1	u	-4%	-6%	-0.5%	u	4%	-7%	6%
N/C(Cc1nc(-c2ccc(F)cc2)cs1)=N\O	u	-11%	x	x	10%[46.1 µM]	-1%	3%	36%[activator]
COc1cc(C2/C(=C(\O)c3ccc4c(c3)CC(C)O4)C(=O)C(=O)N2CCCn2ccnc2)cc(OC)c1OC (stereo not given)	12%[46.1 µM]	0%	x	x	6%[46.1 µM]	5%	2%	27%
COc1ccc(C2c3c(-c4c(C)cc(C)cc4O)n[nH]c3C(=O)N2Cc2ccco2)cc1 (stereo not given)	u	x	u	-13%	-17%[46.1 µM]	x	x	u
CCOC(=O)c1c(C)[nH]c(C(=O)/C(C#N)=C/c2ccc(OC)c(OC)c2)c1C	14%	-5%	u	-8.7%	1%	16%	5%	-13%
CC(C)(C)NC(=O)/C=C/c1cccc(C(F)(F)F)c1	u	1%	-8%	-4.1%	19%	17%	-9%	21%
CC1CN(C(=O)c2cccc(COc3ccc(Br)cc3)c2)CC(C)O1 (stereo not given)	u	-9%	u	-5.0%	u	12%	-6%	-15%

Quoted from the listing.
NS1 inh, CCN(CC)c1ccc(NS(=O)(=O)c2cn(C)c(=O)n(C)c2=O)c(C)c1 is entered as -13%
StopGo reporter, CCCCN(C)CCNC(=O)C(=O)c1c(C)[nH]c2ccccc12 is entered as 5%
Lassa entry inh, CC(C)(C)NC(=O)/C=C/c1cccc(C(F)(F)F)c1 is entered as 19%
Cruzain Triton, COc1ccc(C2c3c(-c4c(C)cc(C)cc4O)n[nH]c3C(=O)N2Cc2ccco2)cc1 (stereo not given) is entered as -13%
SARS PLpro yeast, Cc1ccc(CNC(=O)CC(C)S(=O)(=O)c2ccc3c(c2)NC(=O)CO3)cc1 (stereo not given) is entered as 2%
Cruzain inh noDet, Cc1cccc(C)c1NC(=O)c1ccc2nc(CCc3ccccc3)oc2c1 is entered as -21%

Returning to the listing, starting 4 compounds before the break.
SMILES	Marburg entry inh	RE007 growth inh	Cruzain inh noDet	Cruzain Triton	Lassa entry inh	SARS PLpro yeast	NS1 inh	StopGo reporter
COc1ccc(C2c3c(-c4c(C)cc(C)cc4O)n[nH]c3C(=O)N2Cc2ccco2)cc1 (stereo not given)	u	x	u	-13%	-17%[46.1 µM]	x	x	u
CCOC(=O)c1c(C)[nH]c(C(=O)/C(C#N)=C/c2ccc(OC)c(OC)c2)c1C	14%	-5%	u	-8.7%	1%	16%	5%	-13%
CC(C)(C)NC(=O)/C=C/c1cccc(C(F)(F)F)c1	u	1%	-8%	-4.1%	19%	17%	-9%	21%
CC1CN(C(=O)c2cccc(COc3ccc(Br)cc3)c2)CC(C)O1 (stereo not given)	u	-9%	u	-5.0%	u	12%	-6%	-15%
COc1ccc(-c2cc(C(=O)NCc3ccc(C)cc3)c3cc(C(C)C)ccc3n2)cc1	x	x	1%	-0.6%	u	x	x	-4%
Cn1c(SCc2ccccc2)nnc1-c1ccc2c(c1)OCO2	2%	3%	-1%	2.5%	u	-7%	0%	36%[activator]
COc1ccc(/C(C)=N/NC(=O)CNC(=O)C2COc3ccccc3O2)c(OC)c1 (stereo not given)	u	7%	x	x	-13%[46.1 µM]	8%	-1%	-9%
O=C(NCCc1ccccc1)C1CCN(Cc2ccccc2F)CC1	-1%	0%	-10%	-1.0%	3%	-10%	1%	-7%
C=CCOC(=O)N[C@@H](c1ccccc1)[C@@H](C)[N+](=O)[O-]	u	x	-7%	4.3%	u	x	x	x
CC(C)c1ccc(S(=O)(=O)Nc2ccc3oc4c(c3c2)C(=O)CC(C)(C)C4)cc1	25%[46.1 µM]	x	-2%	-1.7%	25%[46.1 µM]	x	x	-12%
CCSc1ncc(C)cc1[N+](=O)[O-]	-13%	-8%	-2%	-4.4%	1%	0%	u	0%
CCOc1ccc2nc(SC(C)C(N)=O)[nH]c2c1 (stereo not given)	-9%	-22%	-4%	8.3%	u	-5%	7%	56%[activator]
CCc1nc(SCc2cccnc2)c2c(=O)n(C)c(=O)n(C)c2n1	x	-6%	-4%	-1.0%	x	6%	2%	u
COc1cc(C2/C(=C(/O)c3ccc(OCC(C)C)cc3)C(=O)C(=O)N2CCN(C)C)ccc1O (stereo not given)	9%	12%	1%	-2.1%	5%	3%	u	x
NC(=S)NC1CC2C=CC1C2 (stereo not given)	x	27%	x	x	x	1%	-2%	-18%
CS(=O)(=O)N1CCc2nc(-c3ccccc3)sc2C1	u	10%	x	x	u	-2%	-7%	26%
CCn1c2ccc(C)cc2c2nnc(SCCN3CCCCC3)nc21	u	2%	x	x	-21%	0%	4%	-25%
Cc1ccc2c(c1)N(Cc1cccc(Cl)c1)C(=O)c1cccnc1O2	-25%	-5%	-3%	-6.0%	3%	-40%	-12%	-17%
COC(=O)c1ccc(C2c3c(oc4ccc(F)cc4c3=O)C(=O)N2CCO)cc1 (stereo not given)	-11%	-7%	-2%	0.0%	1%	-20%	-1%	-12%
O=C(Nc1ccc(N2CCCCC2)c(Cl)c1)c1cccnc1	1µM*	-9%	-4%	-2.8%	0.89µM*	-11%	-56%	9%
COc1cc(OC)c(N2CC(C(=O)Nc3cccc(C(=O)NC4CC4)c3)CC2=O)cc1Cl (stereo not given)	-1%[46.1 µM]	-19%	x	x	2%	1%	x	-15%
CCN(CC)S(=O)(=O)c1ccc(Cl)c(NC(=O)c2ccccc2C)c1	-12%	13%	-10%	0.5%	8%	4%	-13%	-29%
CCNc1ccc2c(Cl)cc(=O)oc2c1	12%	-29%	-11%	-4.8%	-3%	-7%	-14%	57%[activator]
CC(=O)N1CC2(CC(=O)OC(C)C)CN(C(C)=O)CC(CC(=O)OC(C)C)(C1)C2=O	7%&7%	24%	16%	5.5%	10%	0%	-11%	-8%
CC(=O)c1cccc(CN2CCc3ccc(NC(=O)C4CCCO4)cc3C2)c1 (stereo not given)	1%[46.1 µM]	0%	x	x	18%[46.1 µM]	-3%	-3%	0%
CC(C)c1onc(C(=O)NCc2ccc(F)cc2)c1[N+](=O)[O-]	-27%	14%	1%	-0.1%	-8%	-9%	6%	15%
O=C(COC(=O)c1cc[n+]([O-])cc1)Nc1cc([N+](=O)[O-])ccc1Cl	15%	19%	x	x	-3%	2%	x	-25%
COc1ccc(F)c(CN2CCC(n3nccc3NC(=O)CCCc3ccccc3)CC2)c1	-14%	7%	x	x	u	-1%	-5%	-22%

Bioassay records as filed in PubChem.
